Beta2AR agonist = beta2AR agonists driving receptor internalization, primary screen, cell-based, FAP fluorogen, flow cytometry; Beta-2 adrenergic receptor (Homo sapiens), P07550; Am2.2-beta2AR cells; reference of the scale not given here; response, % (test concentration not listed); actives 0.43% (n = 340,000); AID 504454, 2011;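 active = response above a set limit, near 3 SD of response in nonfluorescent compounds, cut at about 42% in these data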;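 note: stock transfer was 100 nL into about 11 µL; a reference agonist was the positive control; negative values mostly stem from fluorescent compounds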
Target sequence (P07550 whole entry, looked up): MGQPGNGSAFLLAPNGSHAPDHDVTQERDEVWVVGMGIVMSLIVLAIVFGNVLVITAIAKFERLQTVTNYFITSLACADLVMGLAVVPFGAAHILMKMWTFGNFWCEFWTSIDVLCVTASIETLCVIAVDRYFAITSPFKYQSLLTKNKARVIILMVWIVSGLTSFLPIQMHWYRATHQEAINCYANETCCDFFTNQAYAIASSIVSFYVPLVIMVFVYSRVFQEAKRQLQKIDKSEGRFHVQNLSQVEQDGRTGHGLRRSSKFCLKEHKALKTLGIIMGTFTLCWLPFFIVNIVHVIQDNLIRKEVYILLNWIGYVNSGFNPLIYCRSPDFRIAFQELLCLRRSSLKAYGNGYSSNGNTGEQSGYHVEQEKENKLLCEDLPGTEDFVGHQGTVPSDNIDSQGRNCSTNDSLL
HNF4A DNA FP = change in binding of human HNF4A to DNA, primary screen, biochemical, fluorescence polarization, FITC-DNA | Hepatocyte nuclear factor 4-alpha (Homo sapiens), P41235 | 1 h | activity change, % at 10 µM | actives 0.3% (n = 360,000) | AID 1224865, 2016; in the data active = activity change above about 30%, passing the limit was not always enough;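 note: controls were the assay level and a saturating level of protein; the project sought stronger binding though the title names inhibitors; some compounds called inactive have numbers as strong as hits; positive values seem to mean higher polarization but the record does not say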
E coli growth = E. coli growth inhibition, primary screen, OD600 | Escherichia coli growth, 23 h; stronger effect = lower value | actives 0.21% (n = 330,000) | OD600 absorbance (test concentration not listed);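 active = OD600 absorbance below the run mean of sample wells minus 3.6 SD, in any replicate, cut at about 0.56 in these data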;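 note: stock transfer was 300 nL into about 60 µL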
UCH37 inh = inhibitors of human UCH37 deubiquitinase, primary screen, biochemical, Ub-AMC cleavage, fluorescence; Ubiquitin carboxyl-terminal hydrolase isozyme L5 (Homo sapiens), Q9Y5K5; purified proteasome/UCH37; inhibition, % (no concentration beside the values); actives 0.33% (n = 330,000); AID 588478, 2011;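 active = mean of two replicates above 20%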;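 note: 0% = compound-free wells with enzyme and 100% = wells lacking proteasome; stock transfer was 100 nL into about 20 µL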
Target sequence (Q9Y5K5 whole entry, looked up): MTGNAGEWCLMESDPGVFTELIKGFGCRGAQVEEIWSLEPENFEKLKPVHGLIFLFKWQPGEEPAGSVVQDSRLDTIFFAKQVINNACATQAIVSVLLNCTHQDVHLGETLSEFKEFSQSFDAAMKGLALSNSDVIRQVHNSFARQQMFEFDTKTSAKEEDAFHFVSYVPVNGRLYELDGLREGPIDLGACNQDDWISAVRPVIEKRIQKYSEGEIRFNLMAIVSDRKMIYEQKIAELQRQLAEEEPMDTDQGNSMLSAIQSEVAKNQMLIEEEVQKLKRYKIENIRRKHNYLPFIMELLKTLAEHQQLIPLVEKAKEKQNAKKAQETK
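Signal – fluorescence, ex 355 nm, em 460 nm · System – Proteasome-bound UCH37 · Input – 0.15 nM proteasome as dispensed · Timing – 30 min preincubation with enzyme, 25 min cleavage at room temperature · Read-out basis – percent inhibition of cleavage signal versus uninhibited and no-proteasome wells · Medium – Tris-HCl pH 7.4 with ATP-MgCl2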
Vif TR-FRET = inhibitors of Vif binding to APOBEC3G peptide, primary screen, biochemical, TR-FRET, GST-Vif 1-94, biotin-A3G peptide, dose response retest (AID 1117319); Virion infectivity factor (Human immunodeficiency virus type 1 group M subtype B (isolate …; inhibition, %; hits with a dose series show IC50 in µM; TR-FRET GST-Vif / biotin-A3G peptide binding; higher % means a stronger effect; test concentration not given here; strong numbers were not always called active; actives 0.57% (n = 260,000);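 active = above the screen mean plus three standard deviations and confirmed in dose response; inconclusive = results disagree or hit not tested in dose response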;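 note: Vif residues 1-94 fused to GST binding biotinylated APOBEC3G peptide 110-148; 0% = full assay without inhibitor and 100% = GST in place of GST-Vif; retest series ran down from 100 µM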
LANA-H2B inh = blockers of LANA interaction with H2A/H2B – biochemical, FP readout, HTS, primary screen | inhibition, % (no concentration beside the values) | Protein LANA1 (Human herpesvirus 8 type P (isolate GK18)), Q9QR71 | actives 0.6% (n = 320,000) | cell-free LANA-H2A/H2B peptide, fluorescence polarization | AID 2629, 2010; in the data active = inhibition mostly above about 10%, no sharp cut-off; inactive = mostly below about 6.7%;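 note: stock transfer was 7.5 nL into about 10 µL; 0% = median of vehicle wells and 100% = median of positive control wells; one replicate is shown; the record names a cut of 25% in any replicate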
Bfl-1 A1 inh = caspase 3/7 activation in MEF A1-2A-BIM cells, primary screen, A1 inhibitor project, cell-based, luminescence, HTS. caspase activation, % (concentration not given with the values). AID 2462, 2010. Caspase-Glo 3/7 luminescence, 3 h; percent of clofoctol response, vehicle zero. actives 0.066% (n = 330,000);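 active = over half of replicate activation scores above 10%, or exactly half above 10 with the replicate mean above 10; inconclusive = replicate mean below 10 yet half the replicates above 10; inactive = over half of replicates below 10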;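 note: wells of about 30 µL received 50 nL stock; many hits fall short of the cut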
* hit, by the source's call; i = inactive; ? = inconclusive; nt = not tested or not shown. These rows are one share of the data. The share of hits here may be higher or lower than overall.

SMILES	Beta2AR agonist	HNF4A DNA FP	E coli growth	UCH37 inh	Vif TR-FRET	LANA-H2B inh	Bfl-1 A1 inh
NC(=O)Cn1cc(C(=O)c2ccccc2)c2ccccc21	-5	-3.8	0.68	1.6	nt	-0.4	0.5
CCCC1(CCO)C(=O)NC(=S)NC1=O	23	3.0	0.68	4.2	1%	nt	nt
CC(=NCCN1CCCCC1)c1c(O)n(-c2ccc(Cl)cc2)c(=O)[nH]c1=O	2	6.5	0.78	1.0	2%	-3.4	-0.6
COC(=O)C1=C(c2ccc(OC)c(OC)c2)C[C@@H]2CC[C@H]1N2C(=O)NCCNC(C)=O	6	-0.5	nt	0.2	nt	3.4	0.5
CCc1ccccc1N1C(=O)CC(=O)NC1=O	5	5.6	0.68	5.8	nt	4.0	0.1
CC1CC2(O)c3no[n+]([O-])c3CCC2N1O (centres undefined)	4	0.6	0.67	-0.2	-1%	-13	0.6
C=CCn1c(O)c(C(C)=NCCc2c[nH]c3ccccc23)c(=O)[nH]c1=O	-7	-1.8	0.72	1.3	-3%	0.4	0.3
CC12CN3CCN(CC(C3)/C1=N/NC(N)=O)C2	-1	3.5	nt	nt	2%	-2.2	-0.4
COc1cc(OC)c(OC)cc1CN1CCN(C(=O)Cc2ccccc2)CC1	-4	1.3	0.73	1.3	nt	2.2	-0.1
Cc1ccc(CN2CCN(CC(=O)N3CCC4(CC3)OCCO4)C2=O)cc1	-4	2.5	0.79	-0.5	2%	4.3	0.9
CC1CCCCN1C(=O)c1ccc(N2CC3CC(C2)c2cccc(=O)n2C3)c([N+](=O)[O-])c1 (centres undefined)	-2	-1.6	0.61	2.9	nt	-5.4	0.4
COC(=O)C1=C(c2ccc(C(C)=O)cc2)C[C@@H]2CC[C@H]1N2C(=O)NCc1ccc2c(c1)OCO2	0	1.3	nt	2.8	nt	2.5	0.7
COc1cc2c(cc1OC)-c1c(OC)c(OC)cc3c1C(C2)N(C)CC3 (centres undefined)	-25	9.0	0.75	28*	13%	3.1	-1.7
NC(=O)CSP(=O)(c1ccccc1)c1ccccc1	-1	-2.9	0.71	2.2	1%	6.7	-0.9
CC(C)C(=O)Nc1ccc(S(=O)(=O)N2CC3CC(C2)c2cccc(=O)n2C3)cc1 (centres undefined)	-2	-3.3	0.7	-2.1	2%	-5.1	-0.1
COC(=O)C1=C(c2ccc(-c3ccccc3)c(F)c2)C[C@@H]2CC[C@H]1N2C(=O)N1CCCCC1	3	-1.9	nt	4.3	nt	3.0	0.0
COP(=O)(OC)C(NC(=O)C(C)(C)C)=C(Cl)Cl	-1	-1.0	0.68	3.0	2%	-1.2	-0.6
O=[N+]([O-])c1cc(-n2cnnn2)c(O)c([N+](=O)[O-])c1	3	-4.2	0.69	15	10%	4.2	-1.2
Cc1nn(Cc2c(Cl)cccc2Cl)c(Cl)c1C(=O)O	10	2.3	0.64	1.5	1%	1.2	-0.5
CCCCCCN1CCN(c2ccc(Cl)cc2)CC1	0	2.5	0.64	4.8	16%	-0.3	0.2
C=CCn1c(O)c(/C=N/NC(=O)c2ccncc2)c(=O)[nH]c1=O	5	1.8	0.62	-17	nt	1.0	-0.2
CC12CC[C@H]3[C@@H](CCC4(O)C[C@H](O)CCC34/C=N/NC(=O)c3ccccc3O)C1(O)CCC2C1=CC(=O)OC1 (some centres undefined)	-1	2.5	nt	nt	15%	4.2	-0.8
C[C@H]1CCC/C=C/[C@@H]2C[C@H](O)C[C@H]2[C@@H](O)/C=C/C(=O)O1	14	-1.5	nt	nt	-2%	nt	nt
Cc1ccc(-n2c(/C=C/c3ccccn3)nc3ccccc3c2=O)cc1	-1	1.3	0.7	-15	-18%	nt	nt
CC(=O)N1N=C2C3CCN(CC3)C2C1c1cccc2ccccc12 (centres undefined)	21	1.7	0.73	6.1	nt	4.0	-0.2
Fc1ccccc1CCNCc1cccc2ccccc12	0	0.8	0.66	1.0	nt	-1.2	0.5
O=C(OCC(=O)c1ccc([N+](=O)[O-])cc1)/C(=C\c1ccc(Cl)cc1)NC(=O)c1ccccc1	18	-1.2	0.63	2.6	19%	-1.6	0.9
O=P(C(=Nc1ccc(Cl)cc1)N1CCOCC1)(N1CCOCC1)N1CCOCC1	14	1.2	0.7	2.3	2%	-9.1	-1.4
COc1ccc2c(c1)CC1(CN2C)C(=O)NC(=O)N(CCc2ccccc2)C1=O (centres undefined)	-3	1.1	0.71	1.5	11%	-3.9	0.0
CC(c1ccccc1)n1cncc1C(=O)O (centres undefined)	-1	-0.9	0.67	-0.1	2%	-1.1	-0.4
N=C1c2ccccc2CN1NC(=O)c1ccc(Br)cc1	15	-4.1	0.65	1.5	8%	-5.6	0.0
NS(=O)(=O)c1nc[nH]c1[N+](=O)[O-]	0	2.0	0.6	6.0	-1%	nt	nt
O=C(CCl)Nc1nccs1	5	1.0	nt	nt	10%	-4.4	2.1
NC(Cc1ccccc1)Cc1ccccc1	0	2.7	0.66	1.0	-3%	-0.2	0.0
CC1(C)NCCN2C(=O)CSC21 (centres undefined)	6	-5.4	0.71	-1.0	1%	0.1	0.2
COC(=O)c1ccc(NC(=O)NC(=O)Oc2ccccc2)cc1	2	-1.4	0.68	-1.7	3%	-12	1.7

2 entries picked at random from those above:
SMILES	Beta2AR agonist	HNF4A DNA FP	E coli growth	UCH37 inh	Vif TR-FRET	LANA-H2B inh	Bfl-1 A1 inh
O=C(CCl)Nc1nccs1	5	1.0	nt	nt	10%	-4.4	2.1
O=[N+]([O-])c1cc(-n2cnnn2)c(O)c([N+](=O)[O-])c1	3	-4.2	0.69	15	10%	4.2	-1.2

(continued)
SMILES	Beta2AR agonist	HNF4A DNA FP	E coli growth	UCH37 inh	Vif TR-FRET	LANA-H2B inh	Bfl-1 A1 inh
COc1cc(OC)c(C=O)c(OC(=O)N(C)C)c1	7	3.0	0.69	-1.2	-1%	3.7	-0.5
O=C1NC(=S)NC(=O)C1=Cc1ccc(OCC(=O)N2CCCC2)cc1	-3	-2.2	0.71	2.6	3%	0.6	0.8
NNC(N)=O	-4	-1.7	nt	2.8	nt	2.5	0.7
CCOc1ccc(N=Cc2c(O)n(CCc3ccc(OC)c(OC)c3)c(=O)[nH]c2=O)cc1	-1	11	0.68	-31	nt	-8.7	0.8
CCCCC1C(=O)NC(=S)N(C)C1=O (centres undefined)	6	0.0	nt	nt	-13%	nt	nt
C=CCN1C(=O)NC(=O)/C(=C/c2ccc(OCC(=O)Nc3ccc(C)cc3)cc2)C1=O	7	-1.7	0.69	0.6	nt	0.6	1.0
CCCCCn1c(N)c(C(=O)NCc2cccs2)c2nc3ccccc3nc21	nt	nt	0.76	-350	4%	-4.3	0.2
Cc1nn(C2CCOC(C)(C)C2)c2c1C(c1ccc(OC(C)C)cc1)SCC(=O)N2 (centres undefined)	20	2.7	0.68	1.4	1%	4.0	1.3
C[C@]12CC[C@@H](O)CC1=CC(=O)C1C2CC[C@]2(C)C(=O)CCC12 (some centres undefined)	0	-8.4	nt	nt	-1%	-1.1	-0.3
COCCNC(=O)CN1C(=O)C(C)N=C(c2ccccc2)c2cc(Cl)ccc21 (centres undefined)	-16	0.0	0.7	4.3	2%	1.0	-0.3
O=C1CC(=O)N(c2cccc(Br)c2)C(=O)N1	-7	9.6	0.68	-1.4	-7%	-6.0	0.7
O=C(Nc1ccccc1OC(=O)N1CCCCC1)N1CCCCC1	0	0.2	0.72	1.6	2%	3.8	0.0
CN1CCN(c2ncnc3nc[nH]c23)CC1	-5	3.3	0.66	3.9	3%	1.7	0.8
CCN(CC)c1ccc(N=Cc2c(O)[nH]c(=O)[nH]c2=O)cc1	-4	5.9	0.67	8.1	nt	2.9	0.1
O=C(c1ccccc1F)c1cn(Cc2ccccc2)c2ccccc12	-1	-3.7	0.75	4.0	26%	0.2	0.5
O=C(CN1CCCC1=O)NCCc1ccccc1	6	-0.6	0.66	0.6	-13%	3.9	-2.6
CN1CCN(c2ccc(S(=O)(=O)C(F)(F)F)cc2[N+](=O)[O-])CC1	-4	1.6	0.64	1.5	nt	2.5	-0.4
c1ccc(NC2=NCCS2)cc1	-3	0.6	0.7	1.1	6%	0.6	0.4
CC(C)OCC(O)CN1CC2C[C@@H](C1)Cn1c2cccc1=O (some centres undefined)	1	-2.1	0.67	-2.0	1%	-1.4	0.5
COc1ccc(N2C(=O)/C(=C/c3ccc(N(C)C)o3)C(=O)NC2=S)cc1	-66	126	0.68	25*	7%	-21	0.1
Cc1ccc2c(c1)=C/C(=C\c1c(O)[nH]c(=O)[nH]c1=O)C(=O)N=2	3	-3.1	0.7	6.5	25%	-1.7	1.0
CC1=CC(=C2C(=O)NC(=S)NC2=O)C=C(C(F)(F)F)N1Cc1ccccc1	13	0.5	0.73	4.1	i	0.6	0.2
C/C(=N/OC(=O)N(C)C)c1ncc(C(F)(F)F)cc1N1CCOCC1	6	0.2	nt	nt	?	-0.1	-0.1
Cc1ccc(N2C(=O)NC(=O)/C(=C/C=C/c3ccco3)C2=O)cc1	83*	7.4	0.71	2.5	?	0.1	0.4
FC(F)(F)c1ccc2c(c1)NP(=S)(N1CCOCC1)c1nccn1-2 (centres undefined)	-5	0.3	0.7	3.1	0%	1.8	1.9
COc1ccc(CCNCc2cccn2C)cc1	8	-1.3	0.68	4.0	13%	2.4	0.4
COc1ccccc1N1CCN(Cc2c(F)cccc2F)CC1	2	2.5	0.7	2.6	1%	-0.1	-0.1
CCOP(=O)(OCC)C(Cc1ccccc1)NC(C)=O (centres undefined)	2	0.3	0.63	1.6	4%	3.8	-2.7
COc1cccc(CC(=O)N2CCN(Cc3cccc(Cl)c3)CC2)c1	-4	1.3	0.66	6.3	nt	0.8	1.3
CCC(=NCCO)c1c(O)n(-c2ccc(Cl)cc2)c(=O)[nH]c1=O	6	0.8	0.66	1.0	-6%	-3.6	-1.1
CCCNC(=O)c1c(N)n(Cc2ccco2)c2nc3ccccc3nc12	nt	nt	0.71	-405	24%	-5.4	-0.7
CCOC(=O)c1cc(C(O)(C(=O)OC)C(F)(F)F)c(/N=C/N(C)C)o1 (centres undefined)	-2	-4.2	nt	nt	2%	3.3	1.0
O=C(NC(=O)c1c(F)cccc1F)Nc1cc(Cl)c(F)c(Cl)c1F	-4	0.3	0.68	1.9	0%	-7.0	0.7
C/C=C(\C)C(=O)N[C@@H](c1ccccc1)[C@@H](O)C(=O)O[C@H]1C[C@@]2(O)[C@@H](OC(=O)c3ccccc3)C3[C@](C)(C(=O)[C@H](O)C(=C1C)C2(C)C)[C@@H](O)C[C@H]1OC[C@@]31OC(C)=O (some centres undefined)	-17	1.6	0.69	0.7	nt	3.2	-0.2
CCOc1cc(/C=C2\C(=O)NC(=O)N(CCc3ccc(F)cc3)C2=O)ccc1O	13	7.3	nt	nt	14%	1.0	0.0
COc1ccc(CN2CC=C(c3ccc(F)cc3)CC2)cc1Br	-4	2.2	0.63	2.6	3%	3.8	-0.3
COc1ccc(F)cc1C(=O)C1CCCN(Cc2ccc(O)cc2)C1 (centres undefined)	2	-1.2	0.66	-11	0%	-12	1.3
CC(=O)Cc1ccc(OC(C)C)cc1	-3	-2.2	0.71	-2.9	22%	-5.2	0.7
